From PubChem
FGF22 binding: binders of recombinant human FGF22 by thermal shift; 340,000 compounds, 1.5% hits; AID 651658; SYPRO orange fluorescence; percent of sucrose octasulfate shift, DMSO zero; calls only at 9.99 µM; Q9HCT0;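 active = melting point raised past a set limit in the mean and every replicate; inconclusive = no clear call; three in four hits are not shown here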
Target sequence (Q9HCT0 whole entry, looked up): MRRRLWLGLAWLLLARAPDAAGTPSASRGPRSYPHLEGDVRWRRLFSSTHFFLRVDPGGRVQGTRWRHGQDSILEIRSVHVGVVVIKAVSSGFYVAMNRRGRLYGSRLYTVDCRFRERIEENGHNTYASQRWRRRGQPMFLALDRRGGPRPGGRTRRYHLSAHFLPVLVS
Ecoli growth: E. coli growth inhibition; Escherichia coli growth, OD600, 23 h; active compounds read low; OD600 absorbance (no concentration beside the values); 330,000 compounds, 0.21% hits; AID 1053175;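 active = OD600 absorbance below the run mean of sample wells minus 3.6 SD, in any replicate, cut at about 0.56 in these data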;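 note: stock transfer was 300 nL into about 60 µL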
Ecoli rRNA inh: inhibits bacterial ribosomal RNA function over humanized ribosomes; E. coli WT GFP vs humanized-ribosome RFP mutants, fluorescence, 24 h; active compounds read low; DMSO median 0, no signal -100; GFP signal change (wild-type ribosome), % (test concentration not listed); 350,000 compounds, 1.6% hits;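 active = significant combined selectivity score with lowered wild-type GFP, culture density cut under 30%, mutant RFP and density less affected; inactive = any of these conditions unmet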; note: one replicate is shown; some compounds called inactive have numbers as strong as hits
Vif TR-FRET: inhibitors of Vif binding to APOBEC3G peptide, primary screen, biochemical, TR-FRET, GST-Vif 1-94, biotin-A3G peptide, dose response retest (AID 1117319); TR-FRET GST-Vif / biotin-A3G peptide binding; higher % means a stronger effect; test concentration not given here; strong numbers were not always called active; inhibition, %; hits with a dose series show IC50 in µM; 260,000 compounds, 0.57% hits;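 active = above the screen mean plus three standard deviations and confirmed in dose response; inconclusive = results disagree or hit not tested in dose response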;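 note: Vif residues 1-94 fused to GST binding biotinylated APOBEC3G peptide 110-148; 0% = full assay without inhibitor and 100% = GST in place of GST-Vif; retest series ran down from 100 µM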
AF4-AF9 inh: blocks AF4 peptide binding to human AF9. P42568. AlphaScreen, biotin-AF4 peptide binding to FLAG-AF9. inhibition, % at 10 µM. 350,000 compounds, 0.47% hits. AID 651704;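 active = every replicate reaching a set inhibition limit, whatever the replicate mean, cut at about 25% in these data; inconclusive = mean inhibition reaches that limit but some replicates miss it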;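 note: 0% = plate neutral control median and 100% = total signal loss; the record names both 10 and 1 µM as test concentration; the first replicate is given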
Target sequence (P42568 whole entry, looked up): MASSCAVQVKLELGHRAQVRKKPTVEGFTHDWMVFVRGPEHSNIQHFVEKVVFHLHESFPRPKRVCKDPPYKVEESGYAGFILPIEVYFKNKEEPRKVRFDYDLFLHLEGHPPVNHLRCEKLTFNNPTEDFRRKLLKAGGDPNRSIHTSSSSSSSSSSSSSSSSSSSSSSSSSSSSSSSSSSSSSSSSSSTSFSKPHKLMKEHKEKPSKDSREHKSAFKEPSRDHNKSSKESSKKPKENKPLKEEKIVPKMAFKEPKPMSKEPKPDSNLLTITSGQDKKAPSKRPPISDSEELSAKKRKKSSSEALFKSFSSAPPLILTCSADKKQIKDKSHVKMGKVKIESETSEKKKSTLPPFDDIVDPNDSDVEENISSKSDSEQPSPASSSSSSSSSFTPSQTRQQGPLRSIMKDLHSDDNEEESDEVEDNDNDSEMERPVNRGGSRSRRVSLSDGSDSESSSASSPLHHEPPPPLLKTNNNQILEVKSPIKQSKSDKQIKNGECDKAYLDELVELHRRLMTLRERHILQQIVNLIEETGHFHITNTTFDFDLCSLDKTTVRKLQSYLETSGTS
ALR H2O2 inh: inhibitors of human sulfhydryl oxidase ALR. P55789. purified ALR, DTT oxidation, H2O2 HRP-luminol luminescence. inhibition, % (test concentration not listed). 290,000 compounds, 3.8% hits. AID 485317;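 active = mean and each replicate at 75% or more; inconclusive = only one of the two met; inactive = neither met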;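 note: stock transfer was 7.5 nL into about 7.5 µL; 0% = neutral wells and 100% = wells with inactivated enzyme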
Target sequence (P55789 whole entry, looked up): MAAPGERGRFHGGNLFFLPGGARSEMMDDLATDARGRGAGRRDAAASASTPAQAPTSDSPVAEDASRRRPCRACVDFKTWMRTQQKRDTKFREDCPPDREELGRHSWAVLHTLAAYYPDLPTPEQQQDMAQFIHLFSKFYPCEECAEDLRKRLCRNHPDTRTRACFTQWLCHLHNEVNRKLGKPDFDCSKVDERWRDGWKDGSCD
HNF4A DNA FP: change in binding of human HNF4 alpha to DNA; P41235; HNF4a-FITC DNA binding, fluorescence polarization, 1 h; activity change, % at 10 µM; 360,000 compounds, 0.3% hits; AID 1224865; in the data active = activity change above about 30%, passing the limit was not always enough;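 note: controls were the assay level and a saturating level of protein; the project sought stronger binding though the title names inhibitors; some compounds called inactive have numbers as strong as hits; positive values seem to mean higher polarization but the record does not say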
Ecoli rRNA inh OD600: second read-out of Ecoli rRNA inh, no call of its own (marks repeat the call); OD600 change, %; measured here: OD600 growth;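 optical density of the mix in the first replicate; 0 = DMSO median and -100 = no signal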
Ecoli rRNA inh RFP: recorded beside Ecoli rRNA inh, whose call it bears; RFP signal change, %; measured here: RFP humanized mutant strains;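 first replicate; 0 = DMSO median and -100 = no signal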
An asterisk follows results filed as active; i = inactive; ? = inconclusive; / = no result given; & = joins results of further samples. An excerpt; rates above refer to the full screens.

SMILES | FGF22 binding | Ecoli growth | Ecoli rRNA inh | Ecoli rRNA inh OD600 | Ecoli rRNA inh RFP | Vif TR-FRET | AF4-AF9 inh | ALR H2O2 inh | HNF4A DNA FP
C[C@H](CO)N1C[C@H](C)[C@H](CN(C)C(=O)Nc2ccc(F)cc2)Oc2ccc(NC(=O)Nc3ccccc3)cc2CC1=O | i | / | 0 | -5 | 0.1 | / | -0.2 | / | /
Cc1cccc([C@@H]2[C@@H]3C(=O)N(Cc4ccccc4)C(=O)[C@@H]3[C@]3(Cc4ccc(Cl)cc4)C(=O)N(c4ccc(Br)cc4)C(=O)N23)c1 | i | / | 10 | -1 | -2.8 | / | -2.8 | 5 | -0.3
COc1ccccc1CN1CCC(n2nccc2NC(=O)CCOc2ccccc2)CC1 | i | 0.68 | 2 | 7 | 3.4 | / | 3.7 | -3 | -1.2
C[C@H](CO)N1C[C@H](C)[C@H](CN(C)S(=O)(=O)c2cn(C)cn2)Oc2cc(C3=CCCCC3)ccc2S1(=O)=O | i | / | -6 | -10 | 5.3 | / | 6.0 | / | /
C[C@@H]1CN([C@H](C)CO)C(=O)c2cc(NS(=O)(=O)c3ccccc3)ccc2O[C@@H](C)CCCCO[C@H]1CN(C)Cc1ccccc1 | i | / | 1 | 2 | 1.8 | / | -0.5 | / | /
CCCc1nnc(SCC(=O)N2C(C)CCCC2C)n1CCCOC (stereo not drawn) | / | 0.66 | / | / | / | -5% | / | -1 | 1.6
CCc1noc(C)c1C(=O)N1CCN(S(=O)(=O)c2c(C)c(C)cc(C)c2C)CC1 | i | / | 17 | 6 | 2.5 | / | -1.4 | -8 | -0.5
CCCc1[nH]nc2c1C(c1cccc(OC)c1)C(C#N)=C(N)O2 (stereo not drawn) | / | 0.74 | / | / | / | -4% | / | 24 | -2.3
CCCC1=[N+](CC(=O)c2ccccc2)CCn2c(C)ccc21 | / | 0.68 | / | / | / | ? | / | -7 | 1.2
CCOc1ccc(-n2c(=S)sc3c(=O)n(-c4ccccc4)c(SC)nc32)cc1 | i | 0.64 | 11 | 4 | -2.1 | 0% | -4.5 | 1 | -0.6
COc1cccc(N2C(=O)c3cccnc3C2O)c1 (stereo not drawn) | i | 0.68 | 9 | 9 | -0.5 | 1% | 3.1 | -17 | 1.5
CC1(c2nnc(-c3ccncc3)o2)CC(c2c(Cl)cccc2Cl)=NO1 (stereo not drawn) | i | 0.69 | -22 | -23 | 1.0 | / | 14 | -2 | 0.3
COc1c(C)cccc1C(=O)Nc1ccc(N2CCN(S(C)(=O)=O)CC2)cc1 | / | 0.69 | / | / | / | 22% | / | 1 | 3.4
CC(=O)Nc1ccc(/C=C(\C#N)C(N)=O)cc1 | i | 0.65 | -2 | 7 | -1.6 | 7% | -2.1 | -11 | 0.3
COc1cccc(C(=O)Nc2cccc(NC(=O)c3ccccc3Cl)c2)c1 | i | 0.66 | -12 | -11 | -2.4 | / | 0.0 | 1 | 1.6
CC(C)=CC(=O)Nc1cccc(S(=O)(=O)NC2=NCCCCC2)c1 | i | 0.68 | 6 | 8 | 0.3 | / | -3.0 | / | 3.7
O=C(NCC(c1ccco1)N1CCCC1)c1ccc(S(=O)(=O)Nc2ccccc2Cl)cc1 (stereo not drawn) | i | 0.69 | 0 | -2 | -1.7 | 0% | -3.3 | -7 | 0.6
OCCC1CN(Cc2cc3c(cc2Cl)OCO3)CCN1C1CCCC1 (stereo not drawn) | i | 0.69 | 8 | 12 | 0.7 | ? | 3.7 | / | -1.3
COc1ccc(CNC(=O)C[C@@H]2C=C[C@H](NC(=O)c3ccc4c(c3)OCO4)[C@H](CO)O2)cc1 | i | / | 0 | 1 | 0.5 | / | 0.9 | / | /
C[C@H](CO)N1C[C@H](C)[C@@H](CN(C)Cc2ccccc2)Oc2c(NC(=O)C3CCCCC3)cccc2C1=O | i | 0.78 | -3&-23 | -6&-23 | 1.0&16 | / | 0.6&6.4 | 1 | 3.6
CCOC(=O)c1ccc(S(=O)(=O)N2CCN(CC(=O)NC(=O)NC3CCCCC3)CC2)cc1 | / | 0.72 | / | / | / | -2% | / | -2 | -1.2
COc1nnc(-c2ccc(N3CCCCC3)c(NC(=O)C3CCCCC3)c2)c2ccccc12 | / | 0.62 | / | / | / | 0% | / | 12 | 0.8
C/C=C/c1ccc2c(c1)O[C@H](CN(C)C(=O)c1ccccn1)[C@H](C)CN([C@H](C)CO)S2(=O)=O | i | / | -2 | -4 | -4.1 | / | 0.1 | / | /
CCCCn1cnc2c1c(=O)n(CC(=O)c1cc(C)n(C)c1C)c(=O)n2CC(C)C | / | 0.71 | / | / | / | -2% | / | 9 | 1.3
CC(=O)c1ccc(N2CCN(CC(=O)N(CC(C)C)c3c(N)n(CC(C)C)c(=O)[nH]c3=O)CC2)cc1 | / | 0.65 | 11 | 11 | 1.5 | 19% | 1.4 | / | -4.5
COc1ccc(CNC(=O)CN(Cc2ccc(F)cc2)C(=O)CCC(=O)Nc2nccs2)cc1 | i | 0.69 | 5 | 7 | -2.6 | -8% | -0.5 | 1 | 2.7
O=C(O)C(NC(=O)C1CCCN1C(=O)OCc1ccccc1)c1ccccc1 (stereo not drawn) | i | 0.69 | 13 | 5 | -1.3 | 10% | 0.0 | -6 | -2.2
COc1cc(OC)cc(C(=O)NCCCNC(=O)c2ccccn2)c1 | i | 0.71 | 6 | 5 | -3.2 | / | 1.2 | -4 | -2.4
COc1ccc(C)cc1-n1nnnc1SCC(=O)c1ccc2c(c1)OCCO2 | / | 0.71 | / | / | / | -54% | / | -3 | 2.5
C/C(N)=C(/C#N)C(=O)CSc1nc2ccccc2c(=O)n1Cc1ccc(F)cc1 | i | 0.66 | -12 | -15 | -0.8 | 32% | -15 | -1 | -14

2 neighbouring compounds already listed:
SMILES | FGF22 binding | Ecoli growth | Ecoli rRNA inh | Ecoli rRNA inh OD600 | Ecoli rRNA inh RFP | Vif TR-FRET | AF4-AF9 inh | ALR H2O2 inh | HNF4A DNA FP
COc1ccc(C)cc1-n1nnnc1SCC(=O)c1ccc2c(c1)OCCO2 | / | 0.71 | / | / | / | -54% | / | -3 | 2.5
C/C(N)=C(/C#N)C(=O)CSc1nc2ccccc2c(=O)n1Cc1ccc(F)cc1 | i | 0.66 | -12 | -15 | -0.8 | 32% | -15 | -1 | -14

Following part
SMILES | FGF22 binding | Ecoli growth | Ecoli rRNA inh | Ecoli rRNA inh OD600 | Ecoli rRNA inh RFP | Vif TR-FRET | AF4-AF9 inh | ALR H2O2 inh | HNF4A DNA FP
COc1ccc(C(=O)N=S2CCN(C(=O)c3ccc(Cl)cc3)CC2)cc1 | i | 0.65 | 0 | -1 | 2.3 | 3% | -1.3 | -11 | 6.2
Cc1c(C(=O)N2CCCC2)sc(NC(=O)c2ccccc2)c1C#N | / | 0.71 | / | / | / | -5% | / | 7 | -1.6
COc1ccc(S(=O)(=O)Nc2ccc3c(c2)C(=O)N([C@@H](C)CO)C[C@H](C)[C@H](CN(C)S(=O)(=O)c2ccc(C)cc2)O3)cc1 | i | / | 4 | 0 | 2.2 | / | -12 | / | /
C[C@H](CO)N1C[C@H](C)[C@H](CN(C)CC2CC2)Oc2c(NC(=O)C3CCCCC3)cccc2C1=O | i | / | 3 | 8 | 2.6 | / | -1.7 | / | /
COc1cccc(S(=O)(=O)N[C@@H]2C=C[C@H](CC(=O)NCc3ccc(F)cc3)O[C@@H]2CO)c1 | i | / | -3 | -2 | 0.3 | / | -0.9 | / | /
C[C@@H]1CN([C@@H](C)CO)C(=O)Cc2cc(NC(=O)Cc3ccccc3)ccc2O[C@@H]1CN(C)C(=O)Nc1ccc(C(F)(F)F)cc1 | i | / | 0 | -9 | 1.4 | / | 1.8 | / | /
CCN(CC(=O)NC1CCS(=O)(=O)C1)S(=O)(=O)c1cc(C)ccc1C (stereo not drawn) | i | 0.7 | -1 | 8 | -2.1 | -1% | -1.1 | 1 | 2.1
CCOC(=O)c1[nH]c(C)c(/C(O)=C2\C(=O)C(=O)N(CCCN3CCOCC3)C2c2cccs2)c1C (stereo not drawn) | i | 0.7 | -12 | -13 | -1.7 | / | 4.2 | -17 | -0.3
CC(=O)c1c(C)[nH]c(C(=O)OCc2cc(=O)n3cc(Br)ccc3n2)c1C | i | 0.63 | / | / | / | -33% | -2.2 | 13 | -3.9
C[C@@H]1CCCCO[C@@H](CN(C)Cc2ccc(C(=O)O)cc2)[C@@H](C)CN([C@@H](C)CO)C(=O)c2cc(NS(=O)(=O)c3ccc(F)cc3)ccc2O1 | i | / | 0 | 4 | -0.5 | / | 0.5 | / | /

Compound profiles, as listed above. Values in the order: FGF22 binding	Ecoli growth	Ecoli rRNA inh	Ecoli rRNA inh OD600	Ecoli rRNA inh RFP	Vif TR-FRET	AF4-AF9 inh	ALR H2O2 inh	HNF4A DNA FP
Results for `C[C@@H]1CCCCO[C@@H](CN(C)Cc2ccc(C(=O)O)cc2)[C@@H](C)CN([C@@H](C)CO)C(=O)c2cc(NS(=O)(=O)c3ccc(F)cc3)ccc2O1` : i	/	0	4	-0.5	/	0.5	/	/
Results for `Cc1c(C(=O)N2CCCC2)sc(NC(=O)c2ccccc2)c1C#N` : /	0.71	/	/	/	-5%	/	7	-1.6
Results for `COc1ccc(C(=O)N=S2CCN(C(=O)c3ccc(Cl)cc3)CC2)cc1` : i	0.65	0	-1	2.3	3%	-1.3	-11	6.2
Results for `C[C@H](CO)N1C[C@H](C)[C@H](CN(C)CC2CC2)Oc2c(NC(=O)C3CCCCC3)cccc2C1=O` : i	/	3	8	2.6	/	-1.7	/	/
Results for `CCN(CC(=O)NC1CCS(=O)(=O)C1)S(=O)(=O)c1cc(C)ccc1C` (stereo not drawn) : i	0.7	-1	8	-2.1	-1%	-1.1	1	2.1

Additional structures.
SMILES | FGF22 binding | Ecoli growth | Ecoli rRNA inh | Ecoli rRNA inh OD600 | Ecoli rRNA inh RFP | Vif TR-FRET | AF4-AF9 inh | ALR H2O2 inh | HNF4A DNA FP
C[N+](C)(C)CCN(Cc1ccc(Cl)cc1)c1ccccn1 | / | 0.68 | / | / | / | -4% | / | -26 | 0.3
Cc1ccc(CN2CCN(Cc3cccn3-c3ccccn3)CC2CCO)cc1 (stereo not drawn) | i | 0.72 | 8 | 12 | 0.6 | 1% | 3.3 | -7 | 0.5
O=C(NCCc1ccccc1)c1cccc(NC(=O)C2CCCCC2)c1 | i | / | -7 | -23 | -7.3 | -4% | -1.7 | / | 1.6
CC1=NNC(=O)C1CCC(=O)N/N=C/C(Br)=C/c1ccccc1 (stereo not drawn) | i | / | / | / | / | 12% | 2.7 | / | 5.6
COc1ccc(Nc2ncnc3ccc(C)cc23)cc1 | i | 0.69 | -2 | -1 | -3.7 | / | 0.6 | -11 | 5.6
Cc1nnc(SCC(=O)NNC(=O)COc2ccc(Br)cc2)n1C | i | 0.66 | 16 | 13 | 1.3 | 5% | 0.0 | -1 | -1.4
C=CCNC(=O)Nc1ccc2nc(C)sc2c1 | i | 0.66 | 1 | 0 | -0.5 | 15% | -1.8 | 4 | 0.5
Nc1[nH]n(-c2ccccc2)c(=O)c1N=Nc1ccc2ncsc2c1 | i | 0.7 | 8 | 12 | -6.0 | -1% | / | 10 | -3.2
CCc1cc(-c2cnnn2CCc2c[nH]c3ccccc23)ccc1-c1cn(CC(C)C)nn1 | i | / | -34 | -48 | -7.2 | / | 5.1 | / | 0.8
Cn1c(=O)c2cc(S(=O)(=O)NC(C(=O)Nc3cccnc3)c3ccccc3)ccc2n(C)c1=O (stereo not drawn) | i | 0.72 | -4 | 4 | 1.9 | 3% | -9.2 | 0 | 5.7
COc1ccc(Cl)cc1-c1n[nH]c(=S)n1Cc1ccccc1 | i | 0.69 | -30 | -25 | -6.9 | / | -2.6 | 42 | 1.4
